# miR-21 FLuc = qHTS Assay for Modulators of miRNAs and/orActivators of miR-21. HeLa miR-21 FLuc reporter, luciferase, 48 h. Potency, µM (series often up to 38.3 µM), for inactives: at the top dose reporter change, positive = more light. 340,000 tested, under 10 active; active = well fitted rising curve with a large enough effect; inconclusive = small, poorly fitted or top-dose-only effect; inactive = no such curve, though single readings can be large or run the other way;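 also: % of control where 0% means no effect; miR-21 action dims this reporter so a rising signal means less miR-21 action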
#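 HeLa cells stably expressing CMV-driven firefly luciferase with a downstream miR-21 binding sequence, endogenously expressing miR-21, were treated with titrations (up to about 40uM final) for 48 hours at 37 degree Celsius. Luciferase luminescence was read after lysis.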
# Rango-impB inh = qHTS Assay for Inhibitors of Rango (Ran-regulated importin-beta cargo) - Importin beta complex formation. Importin subunit beta-1 (Homo sapiens), Q14974. Rango CFP/YFP FRET sensor + importin beta, 45 min. Potency, µM (top dose mostly 92.2 µM), without a hit: top-dose inhibition of complex formation. hit rate 0.031% among 340,000; active = rising FRET ratio curve, often small or poorly fitted; inconclusive = mostly compound fluorescence or quenching in the first reads; inactive = flat curves in all reads;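 also: potency is read from the fitted curve at half-maximal effect; 0% = DMSO wells and 100% = buffer wells lacking importin beta; nearly all actives have a fitted effect of over 15% in size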
#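 Inhibition scored from the CFP 486 nm/YFP 530 nm FRET ratio 45 min after adding 0.125 microM importin beta to 50 nM Rango biosensor preincubated 5 min with compound (room temperature, PBS with DTT, Tween-20, BSA). No-importin wells as positive control.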
# Rango dissoc inh = qHTS Assay for Inhibitors of RanGTP induced Rango (Ran-regulated importin-beta cargo) - Importin beta complex dissociation; Snurportin-1 (Homo sapiens) + GTP-binding nuclear protein Ran (Homo sapiens) + Importin …; Biochemical FRET Rango-importin beta, RanGTP-induced dissociation; Potency, µM (series often up to 46.1 µM), without a hit: at the highest dose activity change, negative = inhibition; hit rate 0.071% among 340,000; AID 540253, 2011; active means falling FRET ratio curve, often poorly fitted, with flat reads before Ran was added; inconclusive means other falling curves, or compound fluorescence or quenching; inactive means flat or rising ratio curve;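 also: potency is read from the fitted curve at half-maximal effect; % of control where 0% means no effect; nearly all actives have a fitted effect of over 45% in size; -100% = wells without RanGTP and RCC1; the record marks most hits as doubtful in a second field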
#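 Compounds preincubate 5 min with complex of recombinant Rango and importin beta in PBS with 1 mM DTT. Ran (0.6 uM) loaded with 2 mM GTP plus 0.2 uM RCC1 starts dissociation; FRET is recorded 45 min later.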
# GLA inh pH 4.5 = qHTS Assay for Inhibitors of Human alpha-Galactosidase at pH 4.5. activity change, negative = inhibition, % at 105 µM. Alpha-galactosidase A (Homo sapiens), P06280. AID 1467, 2008. 230,000 tested, under 10 active. purified enzyme, 4-MU-alpha-Gal fluorescence, pH 4.5; inconclusive = small, poorly fitted or top-dose-only inhibition, or a rising curve; inactive = flat fitted curve, though single readings scatter; no compound was filed as active;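 also: 0% = full activity with enzyme and -100% = basal without enzyme; dose as in the result columns while the protocol names 77 µM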
# Target sequence (P06280 whole entry, looked up): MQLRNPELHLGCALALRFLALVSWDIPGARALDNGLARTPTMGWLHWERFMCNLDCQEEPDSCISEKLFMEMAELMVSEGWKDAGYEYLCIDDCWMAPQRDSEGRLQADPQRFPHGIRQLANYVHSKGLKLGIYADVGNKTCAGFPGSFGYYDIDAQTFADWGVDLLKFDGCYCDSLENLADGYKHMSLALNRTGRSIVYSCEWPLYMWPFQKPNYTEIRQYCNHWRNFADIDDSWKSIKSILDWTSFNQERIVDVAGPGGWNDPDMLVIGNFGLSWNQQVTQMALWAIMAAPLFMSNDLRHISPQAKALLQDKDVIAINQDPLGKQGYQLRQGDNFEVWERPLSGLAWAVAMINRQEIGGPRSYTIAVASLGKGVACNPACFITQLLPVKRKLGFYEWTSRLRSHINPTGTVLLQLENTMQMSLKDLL
# * hit, by the source's call; ? = inconclusive; . = no result given; & = joins results of further samples. This is a subset, so the mix of outcomes need not match the whole.
SMILES,miR-21 FLuc,Rango-impB inh,Rango dissoc inh,GLA inh pH 4.5
COc1ccc(C2=CC(=O)CC(c3ccc(OC)cc3)C2)cc1 (configuration not stated),-42%,0.0%,8%,0
COc1ccc(NC(=O)CN(C)S(=O)(=O)c2cccc3nsnc23)cc1OC,-16%,-1.5%,8%,8
CN(C)c1ccc(-c2nnc(SCC3CCCO3)n2C)cc1 (configuration not stated),-51%,2.3%,-14%,10
O=C(NCCO)c1ccc(Oc2ccc(C(F)(F)F)cc2[N+](=O)[O-])cc1,-1%,-2.0%,-9%,5
COc1cc(NC(=O)c2c(F)c(F)c(F)c(F)c2F)c(OC)cc1Cl,11%,2.8%,16%,-14
O=C(c1cnn2c(C(F)(F)F)cc(-c3ccccc3)nc12)N1CCCCC1c1cccnc1 (configuration not stated),-5%,1.6%,2%,-6
CCOc1ccc(-c2nnn(CC(=O)NCc3ccc(F)cc3)n2)cc1OCC,-8%,-4.2%,-3%,3
O=C(Nc1ccc(/C=C/c2nc3ccccc3o2)cc1)c1cccc(C(F)(F)F)c1,-9%,-3.4%,31%,2
COc1cc(CN(C)CC2CCCN(CCc3ccccc3F)C2)cc(Cl)c1OC (configuration not stated),1%,-2.0%,5%,.
CC1CC(C)CN(C(=O)Cn2c(=O)n(CCCCC(=O)NCc3ccco3)c(=O)c3ccccc32)C1 (configuration not stated),-2%,-0.2%,17%,0
CC1Oc2ccccc2N(Cc2ccccc2Cl)C1=O (configuration not stated),-16%,0.2%,8%,-7
Cc1ccc(Cn2nnc3c(=O)[nH]c(C4CCCN(S(=O)(=O)c5ccc(F)cc5)C4)nc32)cc1 (configuration not stated),-1%,-1.0%,9%,.
Cc1ccc(/C=N/c2sc(Cc3ccccc3)c(C)c2C(N)=O)o1,-8%,?,-13%,-1
Cn1nc([N+](=O)[O-])nc1Sc1nnc(-c2ccccc2)o1,?,-0.2%,7%,-5
CCC(=O)N(C)CCc1cc2c(c(OC)c1/C=N/NC(=O)[C@H]1C[C@@H]1c1ccccc1)OCO2,0%,0.0%,8%,0
C[C@@H]1CN=C2N(CCNC(=O)CCC3CCCCC3)[C@H](Cc3ccc(O)cc3)CN21,0%,-0.2%,1%,-2
O=C(Cn1c(C(F)(F)F)nc2ccccc21)c1ccccc1,5%,-2.3%,-4%,7
O=C1C2C3C=CC(C3)C2C(=O)N1CNc1ccccc1 (configuration not stated),-2%,-0.4%,-5%,0
CC1CCCCN1C(=O)CSc1nnc(-c2ccccc2O)o1 (configuration not stated),-19%,-2.8%,1%,.
N/C(=N\OC(=O)CCCOc1ccc(Cl)cc1Cl)c1ccccn1,-9%,3.4%,10%,.
COc1cccc(OC)c1C(=O)NC(=S)Nc1ccc2c(c1)Cc1ccccc1-2,-1%,-0.8%,6%,7
CCCN1C2CCCC1CC(NC(=O)c1cc(OC)cc(OC)c1)C2 (configuration not stated),2%,1.2%,-4%,.
O=C(OCc1ccc(F)cc1)c1cc(S(=O)(=O)N2CCCCC2)ccc1N1CCOCC1,.,-2.3%,?,.
CC(Oc1ccc2c(-c3ccccc3)cc(=O)oc2c1)C(=O)NCCN1CCOCC1 (configuration not stated),-14%,-5.4%,8%,.
CCOC(=O)Cc1c(C)nc2c(C#N)c(C)nn2c1C,-3%,1.6%,7%,6
CCOc1ccc2nc(NC(=O)c3cccnc3)sc2c1,-35%,0.6%,-4%,0
CCOc1cc(NC(=O)C2CCCO2)c(OCC)cc1NC(C)=O (configuration not stated),-9%,3.2%,7%,1
COc1ccc(Cc2nc(-c3ccccc3)no2)cc1,-48%,12%,-11%,-5
Cc1cccc(N2CC(C(=O)OCC(=O)Nc3sccc3C(N)=O)CC2=O)c1C (configuration not stated),.,-0.2%,-4%,.
CCc1ccc(NC(=O)CN(c2ccc(OC)cc2)S(=O)(=O)c2c(C)nn(C)c2C)cc1,4%,3.7%,?,.

# Seven of the compounds above, with bars between the fields:
smiles | miR-21 FLuc | Rango-impB inh | Rango dissoc inh | GLA inh pH 4.5
CCCN1C2CCCC1CC(NC(=O)c1cc(OC)cc(OC)c1)C2 (configuration not stated) | 2% | 1.2% | -4% | .
O=C(OCc1ccc(F)cc1)c1cc(S(=O)(=O)N2CCCCC2)ccc1N1CCOCC1 | . | -2.3% | ? | .
CC(Oc1ccc2c(-c3ccccc3)cc(=O)oc2c1)C(=O)NCCN1CCOCC1 (configuration not stated) | -14% | -5.4% | 8% | .
CCOC(=O)Cc1c(C)nc2c(C#N)c(C)nn2c1C | -3% | 1.6% | 7% | 6
CCOc1ccc2nc(NC(=O)c3cccnc3)sc2c1 | -35% | 0.6% | -4% | 0
CCOc1cc(NC(=O)C2CCCO2)c(OCC)cc1NC(C)=O (configuration not stated) | -9% | 3.2% | 7% | 1
COc1ccc(Cc2nc(-c3ccccc3)no2)cc1 | -48% | 12% | -11% | -5

# Further compounds
SMILES,miR-21 FLuc,Rango-impB inh,Rango dissoc inh,GLA inh pH 4.5
O=C(c1ccc(S(=O)(=O)NCC2CCCO2)cc1)N1CCN(c2ccccc2)CC1 (configuration not stated),-1%,2.8%,5%,3
CN1c2ccc([N+](=O)[O-])cc2C(C)(C)C12C=Cc1cc(C(=O)O)ccc1O2 (configuration not stated),-10%,?,?,.
COC(=O)C1=C(Nc2ccc(C)cc2)C=C(C)C(C(=O)OC)C1c1cccc(OC)c1 (configuration not stated),18%,?,-13%,-4
COc1cnc(-c2ccccn2)nc1N(C)c1ccccc1,5%,0.6%,-20%,.
Cc1c(C(=O)OCC(=O)N(C)c2ccccc2)cccc1[N+](=O)[O-],-11%,0.3%,0%,-5
CC1CC(C)CN(C(=O)C2CCN(S(=O)(=O)c3cccs3)CC2)C1 (configuration not stated),-3%,-2.2%,26%,.
O=C(CSc1ccc(F)cc1)NCCc1ccc(Cl)cc1,-2%,4.2%,0%,.
COC(=O)c1ccc(NC(=O)CCOc2ccccc2)cc1,-35%&-49%,-0.2%,-13%,3
CC(C)c1ccc(NC2CCCN(C(=O)CN3CCCC3=O)C2)cc1 (configuration not stated),0%,-1.4%,17%,.
CC(C)CCOP(=O)(c1ccc(N(C)C)cc1)C(Nc1ccccc1)c1ccc(N(C)C)cc1 (configuration not stated),3%,2.0%,-14%,-1
CCOC(=O)N1CCC(=NNC(=O)Cn2ccc(C(F)(F)F)n2)CC1,2%,-5.6%,-11%,-1
OCC1(Cc2ccccc2)CCCN(Cc2cn[nH]c2-c2ccccc2)C1 (configuration not stated),1%,0.5%,-4%,-8
COc1ccccc1CNC(=O)COC(=O)c1ccc2c(=O)n3c(nc2c1)CCCCC3,.,-1.8%,-1%,.
O=C(CN1CCCCC1)Nc1ccc(S(=O)(=O)N2CCOCC2)cc1,-4%,1.5%,3%,9
COc1cccc2c(=O)c(C/C=C(/C)Cl)c(C)[nH]c12,-15%,7.9%,18%,.
Cc1ccc(C(=O)Nc2nccs2)cc1,-26%,3.9%,1%,11
c1coc(CN2CN=C(Nc3nc4ccccc4s3)NC2)c1,-14%,-0.3%,-2%,2
CCCCCCNC(=O)N[C@H](C(=O)NCCC[C@H]1CN2C(=NC[C@H]2C)N1CCC(c1ccccc1)c1ccccc1)C(C)O (some centres not stated),?,.,.,-10
COc1ccc(CNC(=O)[C@H](C)NC(=O)C2CCN(C(=O)[C@@H](N)CCSC)CC2)cc1,1%,-0.4%,-3%,.
COc1cccc(NC(=O)c2ccccc2NS(C)(=O)=O)c1,1%,-1.8%,7%,1
C/C=C\C(=O)Nc1cccc(C2=NOC3(C2)C[C@H](C(N)=O)N(C(=O)Cc2ccc([N+](=O)[O-])cc2)C3)c1 (some centres not stated),5%,-3.5%,-7%,2
COc1cc(-c2[nH]nc3c2C(c2ccco2)C(C#N)=C(N)O3)cc(OC)c1OC (configuration not stated),0%,-3.8%,13%,-8
c1ccc(-c2nc(NCC3CCCO3)c3ccccc3n2)nc1 (configuration not stated),?,0.3%,15%,5
O=C(CSCc1cccc(Cl)c1)N1CCN(Cc2ccc3c(c2)OCO3)CC1,-1%,-0.1%,13%,2
O=C(NC1CCCCC1)C(c1cccnc1)N(CCc1ccccc1)C(=O)Cc1cccs1 (configuration not stated),-3%,0.3%,-12%,10
O=C(CCn1nc(-c2ccccc2)c2ccccc2c1=O)N1CCN(c2ccccc2)CC1,4%,-1.4%,12%,-6
O=C(NCCc1ccccc1)c1cc(-c2ccccc2)c(N2CCOCC2)s1,.,-4.9%,9%,.
CSc1ccc(/C=C(/NC(=O)c2ccccc2)C(=O)NCCCn2ccnc2)cc1,-4%,?,7%,.
COc1ccc(/C=N\NC(=O)c2ccc(F)cc2)cc1COc1cc(F)ccc1[N+](=O)[O-],10%,0.6%,6%,.
O=C(NCc1cccnc1)C(=O)Nc1ccc([N+](=O)[O-])cc1,-1%,0.4%,-6%,2
O=C(Nc1ccccc1N1CCCCC1)c1cccc([N+](=O)[O-])c1,-5%,0.0%,13%,-4
CCOc1ccc(NC(=O)CN(C)C(=O)CCNC(=O)c2ccco2)cc1OCC,.,7.3%,17%,.
O=S(=O)(c1ccc(Cl)cc1)N1CCC2(CC1)OCCN2S(=O)(=O)c1cccs1,.,-1.2%,-12%,.
Cc1ccc2nc3sc(C(=O)N4CCCc5ccccc54)c(N)c3cc2c1,-5%,?,?,1
O=C(Oc1ccccc1Cl)c1ccc(N2CCOCC2)c([N+](=O)[O-])c1,-5%,-0.3%,5%,2
COc1cc2c3c(c1OC)C1(C=CC(=NO)C=C1)CC3N(C(C)=O)CC2 (configuration not stated),-9%,-0.3%,-4%,1
COc1ccc(C2C(C#N)=C(N)Nc3onc(C(C)(C)C)c32)c(OC)c1 (configuration not stated),26%,4.1%,-2%,-5
O=C(CCC(=O)Nc1ccccc1Cl)NNC(=S)Nc1ccccc1C(F)(F)F,2%,0.3%,-5%,.
Cc1nn(CCCC(=O)O)c(C)c1[N+](=O)[O-],3%,1.9%,-17%,-14
Cc1cc(C)nc(Nc2ccc(Br)cc2C(=O)O)n1,1%,-2.1%,-7%,.
CC1(C)CC(=O)C2=C(C1)NCN(Cc1ccccc1)C2,-4%,2.8%,11%,5
N#CCSc1nc2c(c(=O)n1Cc1ccco1)C1(CCCC1)Cc1ccccc1-2,4%,2.4%,-16%,3
Oc1c(Br)cc(/C=N/Nc2ccc(Cl)nn2)cc1Br,-8%,?,-18%,.
Cc1ccc(-c2csc3ncn(CC(=O)N4CCOCC4)c(=O)c23)cc1,-4%,-1.7%,7%,-12
Cc1cc(C)n2c(C)nnc2c1,1%,-1.4%,7%,5
COc1ccc(-n2c(C)cc(/C=C3\SC(=S)N(Cc4ccco4)C3=O)c2C)cc1,-12%,?,?,2
Cc1cc(NC(=NC2CC2)c2ccccc2F)n(-c2ccccc2)n1,-1%,-4.9%,9%,-2
O=C(Nc1ccccc1)N1CCCCC1c1cccnc1 (configuration not stated),-6%,-1.1%,9%,-4
CC(C)(O)C#Cc1ccc(C(=O)N2CCCC2C(=O)O)s1 (configuration not stated),-1%,3.9%,16%,1
Cn1c(N)c(C(=O)COC(=O)c2cc(-c3ccccc3)nc3ccccc23)c(=O)n(Cc2ccccc2)c1=O,-10%,?,?,-1&3
N#Cc1cccnc1N1CCN(C(=O)c2cccc3c2C(=O)c2ccc(-c4ccc(F)cc4OCc4ccccc4)cc2S3(=O)=O)CC1,.,-5.8%,8%,.
O=C(C1CCN(S(=O)(=O)c2c(Cl)cccc2Cl)CC1)N1CCCCCCC1,.,11%,13%,.
CCn1c(COc2ccc(=O)n(-c3ccccc3)n2)nnc1SCc1ccccc1,-10%,3.8%,21%,2
